Screening data from PubChem.
PINK1 modulator: changes PINK1 expression | PINK1 immunofluorescence, high-content cytometry, 24 h | Potency, µM (top dose mostly 76.6 µM), for the others: top-dose activation (PINK1 increase), most hits filed as activators | actives 0.2% (n = 410,000); active = well fitted activation curve with a large enough effect; inconclusive = small, poorly fitted or top-dose-only effect; inactive = flat fitted curve, though single readings scatter; cell line not stated here;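 further: potency means the concentration at half of the fitted maximal effect; % of control where 0% means no effect; nearly all actives have a fitted effect of over 65% in size; a mitochondrial uncoupler was the plate control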
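PINK1 protein, normally rapidly degraded, was detected by immunofluorescence after 24 hour compound treatment of a stable cell line. Titration data (5 concentrations) came from laser-scanning cytometry, with CCCP-treated wells as controls.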
ClpP mod: qHTS Assay for Activators of ClpP. purified B. subtilis ClpP, FRET peptide cleavage, 20 min. ATP-dependent Clp protease proteolytic subunit (Bacillus subtilis (strain 168)), P80244. actives 1.9% (n = 340,000). Potency, µM (titrated, usually from 57.5 µM), without a hit: at the highest dose activity change, negative = active; active = well fitted falling curve with a large enough effect; inconclusive = small, poorly fitted or top-dose-only effect; inactive = no such curve, though single readings can be large or run the other way; further: potency means the concentration at half of the fitted maximal effect; the source files actives as falling curves though it sought activators and does not explain the sign; nearly all actives have a fitted effect of over 65% in size; many hits overshoot -100%
Target sequence (P80244 whole entry, looked up): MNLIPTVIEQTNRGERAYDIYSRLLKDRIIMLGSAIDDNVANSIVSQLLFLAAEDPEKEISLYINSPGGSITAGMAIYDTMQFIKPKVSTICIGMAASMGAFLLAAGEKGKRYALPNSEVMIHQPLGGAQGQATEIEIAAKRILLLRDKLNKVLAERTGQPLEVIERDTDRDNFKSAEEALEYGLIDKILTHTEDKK
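Purified B. subtilis ClpP, 10 microg/mL final in Tris/HCl pH8 with KCl, BSA, glycerol and Tween-20, cleaved an Abz/nitrotyrosine-quenched decapeptide. Fluorescence (ex 320, em 430) was read at 0 and 20 min at room temperature. Delta was normalized to 5.8 microM ADEP and DMSO/no-enzyme controls.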
D2 ag: human D2 receptor agonism in beta-arrestin assay | P14416 | DiscoveRx PathHunter D2 beta-arrestin, luminescence, 90 min; 100% = 57 uM dopamine signal | actives 0.084% (n = 360,000) | activation, % (concentration not given with the values) | AID 624465; in the data active = activation above about 40%; inconclusive = about 15% to 40%; inactive = below about 15%; further: compound concentration not given in the record; the text of the record calls up to 30% inactive
Target sequence (P14416 whole entry, looked up): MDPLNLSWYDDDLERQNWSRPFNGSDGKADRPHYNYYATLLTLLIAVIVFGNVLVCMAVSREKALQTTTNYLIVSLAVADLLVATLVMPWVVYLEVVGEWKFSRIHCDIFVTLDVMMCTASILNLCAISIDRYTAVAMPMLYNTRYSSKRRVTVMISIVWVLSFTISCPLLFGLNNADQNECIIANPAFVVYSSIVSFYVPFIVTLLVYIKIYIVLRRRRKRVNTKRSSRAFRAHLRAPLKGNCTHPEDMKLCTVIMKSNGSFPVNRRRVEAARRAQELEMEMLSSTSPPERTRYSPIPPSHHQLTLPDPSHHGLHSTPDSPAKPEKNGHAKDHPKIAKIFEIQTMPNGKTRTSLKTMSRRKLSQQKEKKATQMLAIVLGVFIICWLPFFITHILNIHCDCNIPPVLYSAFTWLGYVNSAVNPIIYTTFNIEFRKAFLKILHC
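Agonist mode: compounds alone added to overnight-plated D2 PathHunter cells for 90 min at 37 C, with 57 uM final dopamine (EC100) defining full response. Beta-arrestin recruitment detected by chemiluminescent reagent, read after 1 h at ambient temperature.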
gsp ag: agonists of gsp mutant (McCune-Albright syndrome). gsp mutant cells, cAMP HTRF, 30 min; control for the full effect not named in the record. Potency, µM (titrated, usually from 76.9 µM), inactives show at the highest dose activation (cAMP increase), hits mostly activators. actives 0.13% (n = 340,000). AID 624287; active = well fitted activation curve with a large enough effect; inconclusive = small, poorly fitted or top-dose-only effect, or another doubt; inactive = no such curve, though single readings can be large or run the other way; cell line not stated here;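 further: phosphodiesterase inhibitor Ro 20-1724 added with compounds to block cAMP breakdown; potency means the concentration at half of the fitted maximal effect; nearly all actives have a fitted effect of over 60% in size; about a fifth of the inactives were tested at one dose only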
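Cells in DMEM/10% FBS with G418 were pretreated with compounds in DMSO plus […] (300 uM stock) for 30 min at 37C. cAMP was measured by HTRF (cAMP-d2 plus anti-cAMP antibody-K) after 30 min at room temperature.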
Sfp PPTase inh: blocks B. subtilis Sfp PPTase activity. Q9F4F7. Biochemical Sfp PPTase activity, qHTS. actives 3.5% (n = 310,000). Potency, µM, for the others: max response, negative = inhibition, most hits filed as inhibitors; active means well fitted inhibition curve with a large enough effect; inconclusive means small, poorly fitted or top-dose-only effect, or another doubt; inactive means no such curve, though single readings can be large or run the other way;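 further: the enzyme is Sfp with the accession as filed and its product quenches rhodamine fluorescence; potency means the concentration at half of the fitted maximal effect; 0% = enzyme reaction without inhibitor and -100% = no enzyme wells; top concentration of the series not given in the record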
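Compounds were incubated with enzyme (final 15 nM) for 15 min at room temperature before substrate addition started the reaction. Fluorescence at 525 nm excitation, 598 nm emission was recorded immediately and after 30 minutes.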
gsp antagonist: antagonizes gsp, the McCune-Albright syndrome mutation. gsp-mutant cells, cAMP HTRF, 30 min; control for the full effect not named in the record. Potency, µM (top dose mostly 76.9 µM), for the others: top-dose activity change, negative = inhibition, actives largely listed as inhibitors. actives 0.4% (n = 340,000); active = falling curve of any shape with a large fitted effect; inconclusive = falling curve, mostly with a smaller effect; inactive = flat or rising curve; cell line not stated here;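 further: intracellular cAMP measured with PDE inhibitor Ro 20-1724 present during compound exposure; potency means the concentration at half of the fitted maximal effect; on the % scale 0 is the no-effect control and ±100 the full control effect; nearly all actives have a fitted effect of over 65% in size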
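HTRF cAMP measurement after 30 min RT detection following 30 min, 37C compound treatment alongside […] (added as 300 uM solution) in G418-selected cells seeded at 2000/well and grown 16–24 h.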
Menin-MLL FL inh: inhibitors of human menin-MLL interaction, wild-type MLL peptide; 290,000 tested, under 10 active; FP activity change, % at 61.4 µM; Fluorescence polarization, fluorescein-MLL peptide displacement from menin; AID 1766; inconclusive = falling polarisation curve, or a change in total fluorescence; inactive = total fluorescence flat and polarisation flat or rising; no compound was filed as active; the % refers to the polarisation; negative = inhibition;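 further: % of control where 0% means no effect; inhibitors lower the polarisation; unlabelled MLL peptide was the positive control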
An asterisk follows results filed as active; ? = inconclusive; · = no result given; & = joins results of further samples; [ ] = remark or other dose. No enrichment for hits; overall some 5.1% were active at least once.

SMILES	Menin-MLL FL inh	Sfp PPTase inh	gsp antagonist	D2 ag	PINK1 modulator	gsp ag	ClpP mod
O=C(Cn1cc2c(n1)CCCC2)N1CCCc2ccccc21	1.0	2%	-6%	-7.8	1.4%	-38%	-4.1%
C[C@@H]1CN([C@@H](C)CO)C(=O)c2cc(Br)cnc2O[C@H]1CN(C)Cc1ccc(-c2ccccc2)cc1	·	·	·	-0.9	1.2%	-22%	-0.7%
COc1cc(C)c2c(=O)cc(-c3ccccc3)oc2c1	-7.9	-34%	·	·	1.3%	·	·
CC(C)COc1ccc(S(=O)(=O)NNC(=O)c2cc3ccccc3o2)cc1	5.1	10%	?	-2.5	4.5%	-43%[inhibitor]	1.0%
O=C(CSc1nc2[nH]ncc2c(=O)[nH]1)Nc1ccc(F)cc1	·	·	2%	0.0	0.1%	-4%[15.4 µM]	1.8%
CCOc1ccc(S(=O)(=O)NCc2ccccc2OC)cc1	-3.4	14%	-2%	-2.8	-0.7%	-4%	-4.9%
Cc1cc(C)nc(NC(=O)CSc2nccc(C)n2)n1	-0.3	4%	8%	1.7	-0.9%	?	0.1%
COc1ccccc1CNS(=O)(=O)CCNCc1ccco1	·	·	11%	-1.6	0.7%	·	1.2%
Cc1ccc(S(=O)(=O)N2CCOCC2)cc1NC(=O)CSCc1c(C)noc1C	·	·	23%	-1.6	1.8%	?	1.3%
COc1ccc(COC(=O)N/N=C/c2cccs2)cc1	1.8	10%	4%	-3.1	0.6%	-9%	1.7%
Cc1cccc(NC(=O)c2nc[nH]c2C(=O)N[C@@H](CC(C)C)C(=O)OCc2ccccc2)c1	-3.6	23%	-2%	-4.7	3.9%	?	-22%
Nc1c(N2CCCC2)cc(Cl)c2nonc12	?	-22%	6%	3.5	-2.6%[38.3 µM]	-52%[inhibitor]	-20%
Cc1cc(C)n(C(=O)CSc2nnc(SCC(=O)n3nc(C)cc3C)s2)n1	-0.7	-15%	-7%	-0.6	0.3%	-30%	0.7%
COc1cccc(C(=O)CSc2nnc(-c3cc(OC)cc(OC)c3)o2)c1	-2.3	7%	16%	-0.6	14%[38.3 µM]	0%	0.2%
COc1ccc(Cl)cc1NC(=O)CSc1nnc(C2CC2)n1C	-1.3	11%	-4%	-12	0.6%	16%[15.4 µM]	-1.6%
CC(c1ccccc1)C1CC(=O)N(c2ccc(C(=O)O)cc2)C1=O (stereo not drawn)	0.5	-6%	-5%	-3.6	15%[38.3 µM]	-6%	-1.3%
Cc1ccc(-n2c(CCc3ccccc3)n[nH]c2=S)cc1C	-0.8	13%	-14%	3.8	0.8%	16%[15.4 µM]	-1.6%
Fc1ccc(CNCc2ccccc2Cl)cc1	0.1	-21%	-4%	0.0	-1.1%	-35%[inhibitor]	3.1%
O=C1NC(c2ccc(Br)cc2)Nc2sc3c(c21)CCC3 (stereo not drawn)	?	40µM*	-4%	-2.8	8.7%	-18%	-13%
Cc1ccc(C(O)c2ncc(-c3ccccc3F)[nH]2)c(C)c1 (stereo not drawn)	·	·	·	-5.1	1.0%	·	-4.8%
Cc1ccc(-c2nc3cnccn3c2Nc2ccccc2)o1	12	4.5µM*	0%	3.0	3.4%	?	-1.4%
C#CCOCCOCCOCCNc1nc(N2CCN(C(=O)CCCCCCCCCCNC(=O)[C@H](CO)n3cc(CCCSC)nn3)CC2)nc(N2CCN(C(=O)CCCCCCCCCCNC(=O)[C@H](CCCCN)n3cc(CCO)nn3)CC2)n1	·	·	0%	1.2	5.1%	·	-2.8%
COc1ccccc1OCc1ccc(C(=O)Nc2ccc(Cl)cn2)o1	-0.8	-21%	9%	-2.6	5.5%	-7%[15.4 µM]	·
O=C(CSc1nc2c(c(=O)n1-c1ccc(Cl)cc1)SCC2)NCC1CCCO1 (stereo not drawn)	0.3	-7%	-5%	-3.4	1.9%	-1%[15.4 µM]	-1.1%
COC(=O)c1cccc(NS(=O)(=O)c2ccc(OC)c(OC)c2)c1C	0.8	5%	-21%	2.1	-0.5%[38.3 µM]	-18%	-0.1%
COC(=O)c1ccc(/C=N/Nc2nc(N3CCCCC3)nc(N3CCCCC3)n2)cc1	2.3	-1%	7%	3.0	6.4%	-18%[15.4 µM]	·
CN(C)S(=O)(=O)c1ccc(C(=O)N2CCN(S(=O)(=O)c3cccs3)CC2)cc1	-3.7	13%	-21%	-1.3	0.5%	-8%[15.4 µM]	·
COc1ccc(S(=O)(=O)NCc2ccccn2)cc1NC(=O)c1ccccc1F	1.7	-6%	-6%	-3.1	4.9%	14%[15.4 µM]	-3.5%
COc1ccc(NC(=O)Nc2ccc(N3CCCC3=O)cc2)cc1OC	4.3	18%	-3%	1.4	?	7%	0.5%
C/C(=N\NC(=O)Cc1ccc(Cl)cc1)c1ccccn1	1.4	-9%	-6%	-3.9	·	16%	-2.2%
CC(=O)Nc1ccc2nc(NC(=O)c3cccs3)sc2c1	1.8	-6%	0%	-2.5	0.9%	16%[15.4 µM]	·
Cc1c(Cl)cn2c(=O)cc(CN3CCN(c4ccccc4)CC3)nc2c1Cl	5.5	-25%	-20%	-1.9	3.5%	-1%[15.4 µM]	·
CSc1cccc(NC(=O)CCn2c(=O)c3cccn3c3cccnc32)c1	0.9	-11%	-29%	0.0	1.9%	10%	-9.5%
O=c1c(-c2ccc(F)cc2)coc2cc(O)ccc12	0.1	11%	-22%	0.2	12%[38.3 µM]	-14%	?
COc1ccc(S(=O)(=O)NC(=O)C2(C)CCN2C(=O)Cc2ccccc2Cl)cc1OC (stereo not drawn)	·	·	·	-5.2	1.9%	·	0.2%
COc1cc(N)c2ncccc2c1Cl	·	·	7%	2.1	0.7%	-28%	·
CCC(=O)N1COC[C@@H]1Cc1ccccc1	3.1	14%	2%	-0.7	1.2%	19%[15.4 µM]	0.4%
COC(=O)[C@@]1(C)[C@H]2C(=O)N(Cc3ccccc3)C(=O)[C@H]2[C@H]2CN=C(SCc3ccc(Cl)cc3)N21	·	·	-8%	-0.3	-1.3%	·	0.6%
CC1=NN(c2nc3ccccc3s2)C(O)(C(F)(F)F)C1 (stereo not drawn)	1.3	-20%	1%	-1.1	4.6%	8%	1.1%
CCSc1nnc(NC(=O)CC(C)C)s1	-3.2	9%	6%	8.4	-0.6%	-24%	-1.3%
CN(CC(=O)N(CCO)Cc1ccccc1)S(=O)(=O)c1ccc2c(c1)c(=O)n(C)c(=O)n2C	·	13%	-7%	-4.4	0.0%	?	-17%
C[C@H](CO)N1C[C@H](C)[C@@H](CN(C)C(=O)Nc2ccccc2)Oc2ccc(NS(=O)(=O)c3ccc(F)cc3)cc2C1=O	·	·	3%	-1.2	2.3%	·	0.9%
O=C(NC1CCCCC1)c1cc2cc(Br)ccc2o1	2.2	1%	-1%	1.6	2.6%	-11%	·
CCn1c(C2CCN(Cc3ccccc3)CC2)n[nH]c1=S	-3.3	6%	6%	-2.1	-0.2%	-27%[15.4 µM]	·
NS(=O)(=O)c1ccc(CNC(=S)NC2CCCCC2)cc1	-0.9	4%	-1%	-2.3	-0.6%	-2%	-2.9%
Cc1ncsc1CCC(=O)N1CCCC(C(=O)c2cccc(Cl)c2)C1 (stereo not drawn)	0.8	13%	-5%	-1.8	-1.0%	-8%	0.4%
NC(=O)CC(NC(=O)Cc1ccc(Br)cc1)c1ccc(N2CCC(Cc3ccccc3)CC2)c([N+](=O)[O-])c1 (stereo not drawn)	?	7%	2%	1.7	-1.7%	-4%	-1.2%
COc1ccc(NC(=O)c2cnc(SC)nc2)cc1	1.5	20%	7%	-3.2	12%	14%	-2.5%
CN(CCOc1ccccc1)C(=O)C1CCC(=O)N(CCCN2CCCC2=O)C1 (stereo not drawn)	·	18%	10%	3.6	1.5%	?	0.4%
CCCn1c(Sc2nnnn2-c2ccccc2)n[nH]c1=O	0.5	18%	9%	-2.7	-2.1%	-33%[inhibitor]	0.6%
COC(=O)C1C(=O)NCC1c1ccc(C)cc1 (stereo not drawn)	4.6	8%	13%	-1.7	7.0%[38.3 µM]	-30%	-0.3%
COc1ccccc1/C=C/CN1CCC(CO)(Cc2ccccc2)CC1	4.0	-13%	-5%	-0.7	-0.9%	-54%[15.4 µM]	·
COc1cccc(Nc2ccc(C(=O)O)cc2N)c1	3.1	3%	-26%	-1.6	0.4%	21%[15.4 µM]	-4.7%
CCOc1ccc(NS(=O)(=O)c2ccc3[nH]cc(C(=O)NCCOC)c(=O)c3c2)cc1	0.5	21%	6%	1.8	0.6%&3.2%	0%	-2.9%&-8.0%
O=C(O/N=C1\CCCc2ccccc21)c1ccc(F)cc1	2.2	14%	2%	-0.3	-2.2%	-11%	-1.7%
O=C(CSc1nc2[nH]ncc2c(=O)n1-c1ccccc1Br)NCc1ccco1	-0.6	17%	13%	-1.7	3.2%[38.3 µM]	6%	-2.3%
CC1(C(=O)O)CCN1C(=O)c1ccccc1F (stereo not drawn)	·	·	·	-2.9	0.9%	·	-1.5%
CC(=O)Nc1cccc(C(=O)OCC(=O)Nc2ccc(Cl)cn2)c1	·	·	-14%	-4.7	-2.9%	4%[15.4 µM]	·
Cn1c(=O)c2ccccc2n(CC(=O)NC2CCCCC2)c1=O	0.4	9%	5%	-3.8	-0.4%	0%	·
CC(=O)Nc1ccc(CN(C)c2c(C)nc3ccc(C(=O)NCCCn4ccnc4)cn23)cc1	·	·	·	-3.9	1.5%	·	-4.2%
Clc1ccccc1C(c1nnnn1Cc1ccco1)N1CCN(Cc2ccco2)CC1 (stereo not drawn)	2.2	-18%	26%	-3.2	-1.3%	19%	0.6%
Cc1cc2c(=O)oc(-c3ccccc3Br)nc2s1	1.1	6%	35µM*	-6.0	4.6%	1%[15.4 µM]	-1.2%
O=[N+]([O-])c1cc(C(F)(F)F)ccc1NC1CCN(Cc2ccccc2)C1 (stereo not drawn)	·	12%	-7%	-3.0	28%	?	-0.3%
